# mut p53 SMM – mutant p53 (human) binding; 0.4% of 17,000 active; AID 624136; small molecule microarray binding, anti-GST fluorescence; calls only;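 active = compounds whose four printed spots each glow above background more than chance allows, each with a p-value under 7%; compounds were printed on slides so no solution concentration is given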;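 also: about 2 pmol printed per array spot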
# c-Myc SMM – binders of human c-Myc; small molecule microarray, His-c-Myc binding, anti-His fluorescence; calls only; 1.5% of 17,000 active; AID 624141;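 active = spot fluorescence over background with P-value below 7% in all four replicate spots, showing protein binding; compounds were printed on slides so no solution concentration is given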;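 also: score is binary with 100 for all four spots passing and 0 otherwise; about 2 pmol printed per array spot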
# ID4 SMM – ID4 (human) binding; P47928; small molecule microarray, Flag-ID4 binding, fluorescence F/B; calls only; 1.2% of 31,000 active;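 active = spot signal over background at p below 0.07 in all four prints; compounds were printed on slides so no solution concentration is given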;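 also: a binder raises fluorescence above local background on the spot; about 2 pmol printed per array spot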
# Target sequence (P47928 whole entry, looked up): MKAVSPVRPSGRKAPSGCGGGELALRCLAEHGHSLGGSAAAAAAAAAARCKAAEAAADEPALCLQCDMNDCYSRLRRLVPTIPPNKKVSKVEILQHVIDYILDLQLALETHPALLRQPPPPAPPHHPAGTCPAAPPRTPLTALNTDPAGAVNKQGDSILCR
# STAT3 binder – binds human STAT3 on microarray. P40763. Small molecule microarray, His-STAT3 binding, anti-His fluorescence. calls only. 0.2% of 17,000 active;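 active = compounds whose four printed spots each show fluorescence over background unusually high for their array block, chance value under 7%; compounds were printed on slides so no solution concentration is given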;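 also: about 2 pmol printed per array spot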
# Target sequence (P40763 whole entry, looked up): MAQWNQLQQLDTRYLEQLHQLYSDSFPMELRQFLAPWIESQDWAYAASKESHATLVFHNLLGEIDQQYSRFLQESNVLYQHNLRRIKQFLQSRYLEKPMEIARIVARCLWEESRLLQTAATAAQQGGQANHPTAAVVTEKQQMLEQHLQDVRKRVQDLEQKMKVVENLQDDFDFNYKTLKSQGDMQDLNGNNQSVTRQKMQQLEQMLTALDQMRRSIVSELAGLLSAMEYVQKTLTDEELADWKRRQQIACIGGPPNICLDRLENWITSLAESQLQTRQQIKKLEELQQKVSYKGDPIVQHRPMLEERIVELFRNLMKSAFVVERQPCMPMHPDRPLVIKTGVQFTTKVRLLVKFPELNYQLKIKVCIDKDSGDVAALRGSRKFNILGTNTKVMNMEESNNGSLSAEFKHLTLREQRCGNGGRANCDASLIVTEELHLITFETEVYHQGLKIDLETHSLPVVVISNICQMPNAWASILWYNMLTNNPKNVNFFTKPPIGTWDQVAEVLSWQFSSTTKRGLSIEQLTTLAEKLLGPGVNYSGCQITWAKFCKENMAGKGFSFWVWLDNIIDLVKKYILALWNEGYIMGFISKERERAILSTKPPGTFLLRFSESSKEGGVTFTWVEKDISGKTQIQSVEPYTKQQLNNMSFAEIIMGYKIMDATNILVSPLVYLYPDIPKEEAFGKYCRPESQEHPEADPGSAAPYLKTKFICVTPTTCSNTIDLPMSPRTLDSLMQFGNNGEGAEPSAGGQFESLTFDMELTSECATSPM
# Calls only; i = inactive; . = not tested or not shown.
compound	mut p53 SMM	c-Myc SMM	ID4 SMM	STAT3 binder
CC(C)NC(=O)Nc1ccc2c(c1)C(=O)N([C@@H](C)CO)C[C@@H](C)[C@@H](CN(C)Cc1ccc(C(=O)O)cc1)OCCCC[C@@H](C)O2	i	i	i	i
C[C@@H]1CN([C@@H](C)CO)C(=O)c2cccc(NC(=O)c3ccncc3)c2O[C@H]1CN(C)Cc1ccc(C(F)(F)F)cc1	i	i	i	i
C[C@@H]1CN([C@H](C)CO)C(=O)CCCn2cc(nn2)CO[C@H]1CN(C)C(=O)C1CC1	i	i	i	i
COc1ccc(C2CC(=O)c3c(O)cc(O[C@@H]4O[C@H](CO[C@@H]5O[C@@H](C)[C@H](O)[C@@H](O)[C@H]5O)[C@@H](O)[C@H](O)[C@H]4O)cc3O2)cc1 (stereo partly specified)	i	i	i	i
CN(CC(=O)Nc1ccncc1)S(=O)(=O)c1ccccc1	i	i	i	i
O=C1N(Cc2ccccc2)Cc2ccccc2[C@H]2OC(c3ccc(OCCCO)cc3)=N[C@@]12Cc1ccccc1	i	i	i	i
COC(=O)c1ccccc1NC(=O)c1cccc(NC(=O)CSc2ccccc2)c1C	i	i	i	i
O=C(Oc1ccc([C@@H]2Oc3cc(O)cc(O)c3C[C@H]2O)cc1O)c1cc(O)c(O)c(O)c1	i	i	.	i

# Whole records, quoted from the list.
# CC(C)NC(=O)Nc1ccc2c(c1)C(=O)N([C@@H](C)CO)C[C@@H](C)[C@@H](CN(C)Cc1ccc(C(=O)O)cc1)OCCCC[C@@H](C)O2 as listed: mut p53 SMM: i; c-Myc SMM: i; ID4 SMM: i; STAT3 binder: i
# CN(CC(=O)Nc1ccncc1)S(=O)(=O)c1ccccc1 as listed: mut p53 SMM: i; c-Myc SMM: i; ID4 SMM: i; STAT3 binder: i

# Following part
compound	mut p53 SMM	c-Myc SMM	ID4 SMM	STAT3 binder
C[C@H]1CCCCO[C@H](CN(C)C(=O)Nc2ccccc2)[C@@H](C)CN([C@@H](C)CO)C(=O)c2cc(NC(=O)c3ccccc3)ccc2O1	i	i	i	i
C[C@H]1CCCCO[C@@H](CN(C)C(=O)Nc2ccccc2)[C@@H](C)CN([C@@H](C)CO)C(=O)c2cc(NC(=O)CCC(F)(F)F)ccc2O1	i	i	i	i
C[C@@H]1CN([C@H](C)CO)C(=O)c2cccc(NC(=O)NC3CCCCC3)c2O[C@@H]1CN(C)C	i	i	i	i
O=C(NCc1ccccn1)c1cc2nc(-c3ccccc3)cc(-c3ccccc3)n2n1	i	i	i	i
CCOC(=O)[C@@H]1CCCCN1C(=O)C(=O)OC	i	i	i	i
COCCOC(=O)N1C(=O)[C@@]2(c3cc(C#Cc4ccc(OC)cc4)ccc31)[C@H](C(N)=O)[C@H]1C(=O)O[C@H](c3ccccc3)[C@H](c3ccccc3)N1[C@@H]2c1ccc(OCCO)cc1	i	i	i	i
C[C@H](CO)N1C[C@H](C)[C@@H](CN(C)S(=O)(=O)c2cn(C)cn2)Oc2ccc(NC(=O)NC3CCCCC3)cc2C1=O	i	i	i	i
Cn1c(NCc2c(O)ccc3ccccc23)nc2ccccc21	i	i	i	i

# The results go on.
compound	mut p53 SMM	c-Myc SMM	ID4 SMM	STAT3 binder
C[C@@H]1CN([C@H](C)CO)C(=O)c2cc(NC(=O)Cc3ccccc3)ccc2O[C@@H](C)CCCCO[C@@H]1CN(C)C(=O)CCC(F)(F)F	i	i	i	i
C[C@@H]1CN([C@@H](C)CO)C(=O)c2cc(NC(=O)Cc3cn(C)c4ccccc34)ccc2O[C@@H]1CN(C)S(=O)(=O)c1ccccc1	i	i	.	i
Cc1nnc(SCc2ccc(CSc3nnc(C)c(=O)[nH]3)cc2)[nH]c1=O	i	i	i	i
CC(C)(C)C(=O)COc1cccc(NC(=O)c2ccc([N+](=O)[O-])cc2)c1	i	i	i	i
COc1ccc(S(=O)(=O)N(C)C[C@H]2Oc3ccc(NS(=O)(=O)c4cn(C)cn4)cc3CC(=O)N([C@@H](C)CO)C[C@H]2C)cc1	i	i	i	i
COC(=O)[C@H]1N=C(c2ccc(OCCCO)cc2)O[C@H]1c1ccccc1N=[N+]=[N-]	i	i	i	i
C[C@@H]1CN([C@@H](C)CO)C(=O)c2cc(NS(C)(=O)=O)ccc2O[C@@H](C)CCCCO[C@H]1CN(C)C(=O)NC1CCCCC1	i	i	.	i
Cc1noc(C)c1NC(=O)N(C)C[C@H]1Oc2c(NC(=O)c3ccc(-c4nccs4)cc3)cccc2C(=O)N([C@@H](C)CO)C[C@@H]1C	i	i	i	i

# (next part)
compound	mut p53 SMM	c-Myc SMM	ID4 SMM	STAT3 binder
COc1ccc(CN(C)C[C@@H]2Oc3ccc(NC(=O)CCC(F)(F)F)cc3C(=O)N([C@H](C)CO)C[C@H]2C)cc1	i	i	i	i
CCOC(=O)CSc1nnc(-c2ccccc2)n1-c1cccc(C)c1	i	i	i	i
C[C@H](CO)N1C[C@H](C)[C@@H](CN(C)S(=O)(=O)c2ccccc2C#N)OCc2cn(nn2)CCCC1=O	i	i	.	i
C[C@@H]1CN([C@H](C)CO)C(=O)c2cc(NC(=O)c3ccncc3)ccc2O[C@@H](C)CCCCO[C@H]1CN(C)S(=O)(=O)c1cn(C)cn1	i	i	.	i
CC(=O)c1ccc(N2CCOCC2)cc1O	i	i	i	i
Cc1noc(C)c1NC(=O)N(C)C[C@@H]1Oc2ccc(NC(=O)Nc3ccc4c(c3)OCO4)cc2CC(=O)N([C@@H](C)CO)C[C@@H]1C	i	i	i	i
COc1ccc(S(=O)(=O)N(C)C[C@@H]2Oc3ccc(NC(=O)Nc4ccc(C(F)(F)F)cc4)cc3C(=O)N([C@@H](C)CO)C[C@@H]2C)cc1	i	i	i	i
Cc1noc(C)c1NC(=O)N(C)C[C@@H]1Oc2c(NC(=O)Nc3cccc4ccccc34)cccc2C(=O)N([C@@H](C)CO)C[C@@H]1C	i	i	.	i

# Next part; the last four above are carried over.
compound	mut p53 SMM	c-Myc SMM	ID4 SMM	STAT3 binder
CC(=O)c1ccc(N2CCOCC2)cc1O	i	i	i	i
Cc1noc(C)c1NC(=O)N(C)C[C@@H]1Oc2ccc(NC(=O)Nc3ccc4c(c3)OCO4)cc2CC(=O)N([C@@H](C)CO)C[C@@H]1C	i	i	i	i
COc1ccc(S(=O)(=O)N(C)C[C@@H]2Oc3ccc(NC(=O)Nc4ccc(C(F)(F)F)cc4)cc3C(=O)N([C@@H](C)CO)C[C@@H]2C)cc1	i	i	i	i
Cc1noc(C)c1NC(=O)N(C)C[C@@H]1Oc2c(NC(=O)Nc3cccc4ccccc34)cccc2C(=O)N([C@@H](C)CO)C[C@@H]1C	i	i	.	i
OCCN1CCN(CC/C=C2/c3ccccc3Sc3ccc(Cl)cc32)CC1	i	i	i	i
C[C@@H]1CN([C@@H](C)CO)C(=O)CCCn2nncc2CO[C@@H]1CN(C)C(=O)Nc1ccc(-c2cccs2)cc1	i	i	.	i
C[C@@H]1CCCCO[C@@H](CN(C)Cc2ccccc2)[C@@H](C)CN([C@@H](C)CO)C(=O)c2cc(NC(=O)CCC(F)(F)F)ccc2O1	i	i	i	i
CCOc1ccccc1NC(=O)c1ccsc1NC(=O)c1ccoc1C	i	i	i	i
CC(C)NC(=O)Nc1ccc2c(c1)C(=O)N([C@H](C)CO)C[C@@H](C)[C@H](CN(C)C(=O)Nc1cccc3ccccc13)OCCCC[C@H](C)O2	i	i	.	i
CC(C)c1ccc(NC(=O)CSc2n[nH]c(-c3ccc(Cl)cc3)n2)cc1	i	i	i	i
C=C(C)C(O)Cc1cc(CCc2cc(O)cc(O)c2)cc(O)c1OC (stereo unspecified)	i	i	.	i
O=S(=O)(N[C@@H]1CCCN(Cc2cccc(OCCO)c2)C1)c1ccc2ccccc2c1	i	i	i	i

# Other structures follow:
compound	mut p53 SMM	c-Myc SMM	ID4 SMM	STAT3 binder
C[C@H]1CN([C@@H](C)CO)C(=O)Cc2cc(NC(=O)Cc3ccccc3)ccc2O[C@H]1CN(C)Cc1ccc(C(=O)O)cc1	i	i	i	i
CO[C@H]1O[C@H](CO)[C@@H](OC(=O)Nc2ccc3c(c2)OCO3)[C@H](OC(=O)Nc2ccc3c(c2)OCO3)[C@@H]1OC(=O)Nc1ccc2c(c1)OCO2	i	i	i	i
Cc1nn(C)c(-c2n[nH]c(=S)n2-c2ccc(CC(=O)O)cc2)c1Br	i	i	i	i
O=C(NCCN1CCOCC1)c1cc2cc(Cl)cc(Cl)c2oc1=O	i	i	i	i
Cc1cc(C)c2nc(-c3ccc(F)cc3)cc(C(=O)NCc3ccco3)c2c1	i	i	i	i
COc1ccc(S(=O)(=O)Nc2cccc3c2O[C@@H](CN(C)CC2CC2)[C@@H](C)CN([C@@H](C)CO)C3=O)cc1	i	i	i	i
COc1ccc(C(=O)CSc2nnc(-c3ccc(C)cc3)n2-c2ccc(C)cc2)cc1	i	i	i	i
COc1ccc(-c2cnc3c(c2)C(=O)N([C@H](C)CO)C[C@H](C)[C@H](CN(C)C)O3)cc1	i	i	i	i

# Additional entries.
smiles	mut p53 SMM	c-Myc SMM	ID4 SMM	STAT3 binder
C[C@H](CO)N1C[C@H](C)[C@@H](CN(C)Cc2ccc3c(c2)OCCN3C)OCc2cn(nn2)CCCC1=O	i	i	i	i
C[C@H](CO)N1C[C@H](C)[C@H](CN(C)CC2CC2)Oc2ccc(NC(=O)Cc3cn(C)c4ccccc34)cc2C1=O	i	i	i	i
COc1ccc(S(=O)(=O)N(C)C[C@H]2Oc3c(NS(=O)(=O)c4c(C)noc4C)cccc3C(=O)N([C@@H](C)CO)C[C@H]2C)cc1	i	i	i	i
C[C@H]1CN([C@@H](C)CO)C(=O)c2cccc(NC(=O)c3ccncc3)c2O[C@H]1CN(C)CC1CC1	i	i	i	i
Cc1cccc(NC(=O)C(=O)NCCCO)c1	i	i	i	i
C[C@@H]1CN([C@@H](C)CO)C(=O)c2cc(NS(=O)(=O)c3ccccc3)ccc2O[C@@H](C)CCCCO[C@H]1CN(C)C(=O)c1ccccc1	i	i	i	i
Cc1noc(C)c1S(=O)(=O)Nc1ccc2c(c1)C(=O)N([C@H](C)CO)C[C@H](C)[C@@H](CN(C)C)OCCCC[C@H](C)O2	i	i	i	i
C[C@@H]1CCCCO[C@H](CN(C)C)[C@H](C)CN([C@@H](C)CO)C(=O)c2cc(NS(=O)(=O)c3ccc(Cl)cc3)ccc2O1	i	i	i	i
O=C(C1=C[C@@H](C2CC2)C[C@@H](OCc2ccc(CO)cc2)O1)N1CCN(Cc2ccccc2)CC1	i	i	.	i
COC(=O)CCCCCCC(=O)Nc1ccc(C2OC(CSc3nc4ccccc4s3)CC(c3ccccc3)O2)cc1 (stereo unspecified)	i	i	i	i
N#Cc1ccc2ccn(CC(=O)NCc3ccco3)c2c1	i	i	i	i
C[C@@H]1CN([C@H](C)CO)C(=O)Cc2cc(NC(=O)Cn3cnnn3)ccc2O[C@@H]1CN(C)S(=O)(=O)c1ccccc1	i	i	i	i
O=C(CC1Sc2ccccc2NC1=O)Nc1ccc2c(c1)OCCO2 (stereo unspecified)	i	i	i	i
C[C@@H]1CN([C@H](C)CO)C(=O)CCCn2cc(nn2)CO[C@@H]1CN(C)C(=O)c1ccc(N2CCN(C)CC2)cc1	i	i	i	i
C[C@H](CO)N1C[C@H](C)[C@@H](CN(C)C(=O)Nc2ccccc2)Oc2c(NC(=O)c3cnccn3)cccc2C1=O	i	i	i	i
C[C@@H]1CCCCO[C@H](CN(C)C(=O)Nc2ccc(C(F)(F)F)cc2)[C@H](C)CN([C@H](C)CO)C(=O)c2cc(NS(=O)(=O)c3ccc(Cl)cc3)ccc2O1	i	i	.	i
Cc1noc(C)c1NC(=O)N(C)C[C@H]1Oc2ccc(NC(=O)Cc3cn(C)c4ccccc34)cc2CC(=O)N([C@H](C)CO)C[C@@H]1C	i	i	i	i
Cc1ccc(OC(=O)N(C)C[C@H]2OCc3cn(nn3)CCCC(=O)N([C@@H](C)CO)C[C@H]2C)cc1	i	i	i	i
COc1cccc(S(=O)(=O)N2CCCC2C(=O)O)c1 (stereo unspecified)	i	i	i	i
CCn1c2ccccc2c2nnc(SCC(=O)O)nc21	i	i	i	i
C[C@H](CO)N1C[C@H](C)[C@H](CN(C)S(=O)(=O)c2cccs2)Oc2ccc(NC(=O)Nc3cccc4ccccc34)cc2CC1=O	i	i	i	i
CC(C)(O)CCC(=O)C(C)(O)C1C(O)CC2(C)C3CC=C4C(CC(O)C(OC5OC(CO)C(O)C(O)C5O)C4(C)C)C3(C)C(=O)CC12C (stereo unspecified)	i	i	i	i
O=C(COc1ccc([N+](=O)[O-])cc1)Nc1ccc(-c2nc3ccccc3s2)c(Cl)c1	i	i	i	i
C[C@@H]1CCCCO[C@@H](CN(C)Cc2ccncc2)[C@@H](C)CN([C@@H](C)CO)C(=O)c2cc(NS(C)(=O)=O)ccc2O1	i	i	i	i
N#Cc1c(NC(=O)CNS(=O)(=O)c2cccc(Cl)c2)sc2c1CCCC2	i	i	i	i

# (cont.)
smiles	mut p53 SMM	c-Myc SMM	ID4 SMM	STAT3 binder
C[C@@H]1CN([C@H](C)CO)C(=O)CCCn2nncc2CO[C@@H]1CN(C)C(=O)c1ccccc1	i	i	i	i
C[C@H]1CN([C@@H](C)CO)C(=O)Cc2cc(NC(=O)C3CC3)ccc2O[C@@H]1CN(C)S(C)(=O)=O	i	i	.	i
C=CC[C@@]1(C(=O)NCCCOC)N=C(c2ccc(OCCCO)cc2)O[C@@H]1c1ccccc1	i	i	.	i
C[C@H](CO)N1C[C@H](C)[C@@H](CN(C)C(=O)c2ccncc2)OCCCC[C@H](C)Oc2ccc(NS(=O)(=O)c3ccccc3)cc2C1=O	i	i	i	i
CCCCCN(CCCCC)C(=O)C(CCC(=O)O)NC(=O)c1ccc(Cl)c(Cl)c1 (stereo unspecified)	i	i	i	i

# Some of the compounds tested, so the mix of outcomes need not match the whole.
